HNF4A DNA FP: change in binding of human HNF4 alpha to DNA. P41235. HNF4a-FITC DNA binding, fluorescence polarization, 1 h. activity change, % at 10 µM. actives 0.3% (n = 360,000). AID 1224865; in the data active means activity change above about 30%, passing the limit was not always enough;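 further: controls were the assay level and a saturating level of protein; the project sought stronger binding though the title names inhibitors; some compounds called inactive have numbers as strong as hits; positive values seem to mean higher polarization but the record does not say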
Ecoli growth: inhibitors of Escherichia coli growth | OD600 absorbance (no concentration beside the values) | actives 0.21% (n = 330,000) | OD600, 23 h; hits give low values;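 active means OD600 absorbance below the run mean of sample wells minus 3.6 SD, in any replicate, cut at about 0.56 in these data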;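 further: stock transfer was 300 nL into about 60 µL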
Vif TR-FRET: inhibitors of Vif binding to APOBEC3G peptide, primary screen, biochemical, TR-FRET, GST-Vif 1-94, biotin-A3G peptide, dose response retest (AID 1117319); TR-FRET GST-Vif / biotin-A3G peptide binding; higher % means a stronger effect; test concentration not given here; strong numbers were not always called active; inhibition, %, or IC50 in µM where a hit was titrated; actives 0.57% (n = 260,000);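 active means above the screen mean plus three standard deviations and confirmed in dose response; inconclusive means results disagree or hit not tested in dose response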;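 further: Vif residues 1-94 fused to GST binding biotinylated APOBEC3G peptide 110-148; 0% = full assay without inhibitor and 100% = GST in place of GST-Vif; retest series ran down from 100 µM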
AF4-AF9 inh: inhibitors of human MLL-AF4/AF9 interaction | P42568 | AlphaScreen, biotin-AF4 peptide binding to FLAG-AF9 | inhibition, % at 10 µM | actives 0.47% (n = 350,000) | AID 651704;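 active means every replicate reaching a set inhibition limit, whatever the replicate mean, cut at about 25% in these data; inconclusive means mean inhibition reaches that limit but some replicates miss it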;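 further: 0% = plate neutral control median and 100% = total signal loss; the record names both 10 and 1 µM as test concentration; the first replicate is given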
Target sequence (P42568 whole entry, looked up): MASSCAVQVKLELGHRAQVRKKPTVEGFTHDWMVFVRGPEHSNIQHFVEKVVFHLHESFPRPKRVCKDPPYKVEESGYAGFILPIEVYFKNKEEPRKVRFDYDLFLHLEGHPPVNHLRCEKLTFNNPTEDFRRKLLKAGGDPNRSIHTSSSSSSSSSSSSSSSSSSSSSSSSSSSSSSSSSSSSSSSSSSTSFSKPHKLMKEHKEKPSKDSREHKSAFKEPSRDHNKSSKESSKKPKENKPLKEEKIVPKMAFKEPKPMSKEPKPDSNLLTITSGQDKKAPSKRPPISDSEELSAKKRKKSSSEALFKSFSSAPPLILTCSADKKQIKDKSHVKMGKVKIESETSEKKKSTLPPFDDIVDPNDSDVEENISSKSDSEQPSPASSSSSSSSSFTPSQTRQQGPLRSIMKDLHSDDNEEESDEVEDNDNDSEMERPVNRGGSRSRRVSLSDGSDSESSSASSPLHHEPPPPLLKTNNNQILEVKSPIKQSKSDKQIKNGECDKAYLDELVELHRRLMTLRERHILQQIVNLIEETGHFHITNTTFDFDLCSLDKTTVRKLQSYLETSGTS
UCH37 inh: blocks the human deubiquitinase UCH37; Q9Y5K5; purified proteasome/UCH37, Ub-AMC cleavage fluorescence; inhibition, % (no concentration beside the values); actives 0.33% (n = 330,000);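 active means mean of two replicates above 20%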;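 further: 0% = compound-free wells with enzyme and 100% = wells lacking proteasome; stock transfer was 100 nL into about 20 µL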
Target sequence (Q9Y5K5 whole entry, looked up): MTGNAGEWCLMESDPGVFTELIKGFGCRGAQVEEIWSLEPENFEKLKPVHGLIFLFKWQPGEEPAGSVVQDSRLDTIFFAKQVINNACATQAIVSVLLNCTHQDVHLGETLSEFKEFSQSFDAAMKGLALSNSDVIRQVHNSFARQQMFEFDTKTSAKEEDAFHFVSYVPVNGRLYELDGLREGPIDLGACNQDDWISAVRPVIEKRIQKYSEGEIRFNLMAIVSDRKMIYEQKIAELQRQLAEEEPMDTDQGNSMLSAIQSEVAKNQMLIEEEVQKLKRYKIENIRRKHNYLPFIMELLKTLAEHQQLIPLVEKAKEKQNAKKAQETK
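Reagent: Ub-AMC substrate; assay system: Proteasome-associated human UCH37 deubiquitinase; controls: no-proteasome and no-compound wells; read-out: % inhibition of Ub-AMC cleavage fluorescence; timing: 30 min preincubation with enzyme, 25 min cleavage at room temperature; signal: AMC fluorescence from Ub-AMC cleavage, excitation 355 nm, emission 460 nm; buffer or medium: Tris-HCl pH 7.4 plus ovalbumin, ATP-MgCl2, DTT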
RanGTP-Impb inh: inhibitors of RanGTP-importin-beta interaction, primary screen, biochemical, FRET, CFP-Ran, YFP-importin-beta, homogeneous | inhibition, % (no concentration beside the values) | actives 1.1% (n = 300,000) | cell-free CFP-Ran/YFP-importin-beta FRET ratio;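 active means most replicates above 15%; inconclusive means exactly half above 15%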;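 further: 0% = DMSO wells and 100% = Ran loaded with GDP instead of GTP; wells of about 40 µL received 100 nL stock; the first replicate is given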
FGF22 binding: binders of recombinant human FGF22 by thermal shift | SYPRO orange fluorescence; percent of sucrose octasulfate shift, DMSO zero | Q9HCT0 | actives 1.5% (n = 340,000) | AID 651658 | calls only at 9.99 µM;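 active means melting point raised past a set limit in the mean and every replicate; inconclusive means no clear call; three in four hits are not shown here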
Target sequence (Q9HCT0 whole entry, looked up): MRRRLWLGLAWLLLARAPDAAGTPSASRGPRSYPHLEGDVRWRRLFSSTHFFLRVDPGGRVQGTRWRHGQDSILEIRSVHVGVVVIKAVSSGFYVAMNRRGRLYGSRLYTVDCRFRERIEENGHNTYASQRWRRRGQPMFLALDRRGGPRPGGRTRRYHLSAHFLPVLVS
* hit, by the source's call; ! = not active in a repeat. This is a subset. The share of hits here may be higher or lower than overall.

How did COc1cccc2c1C(=O)c1c(O)c3c(c(O)c1C2=O)CC(O)(C(C)=O)CC3OC1CC(O)C(O)C(C)O1 (stereo unspecified) do in these assays?
HNF4A DNA FP: -57; Vif TR-FRET: 13%; AF4-AF9 inh: 8.9; FGF22 binding: inactive

How did Cn1ncc(Br)c1C(=O)NC1C2CC3CC(C2)CC1C3 (stereo unspecified) do in these assays?
HNF4A DNA FP: -0.7; Ecoli growth: 0.72; AF4-AF9 inh: -1.7; UCH37 inh: 3.1; RanGTP-Impb inh: 2.9; FGF22 binding: inactive

Results for COc1ccc(NC(=O)CN2CCN(CC(=O)Nc3ccc4c(c3)OCO4)CC2)cc1 ?
HNF4A DNA FP: 1.0; Ecoli growth: 0.78; Vif TR-FRET: 8%; UCH37 inh: 4.2

Results for O=C(NCc1cccs1)C1CC(c2ccc(Cl)cc2)=NO1 (stereo unspecified) ?
HNF4A DNA FP: -2.4; Ecoli growth: 0.66; AF4-AF9 inh: -0.2; UCH37 inh: -2.1; RanGTP-Impb inh: 1.0; FGF22 binding: inactive

How did Cn1cccc1Cc1nnc(SCC(=O)Nc2nc3ccccc3s2)n1CCc1ccccc1 do in these assays?
HNF4A DNA FP: 3.3; Ecoli growth: 0.7; Vif TR-FRET: 1%; AF4-AF9 inh: -10; UCH37 inh: 4.4; FGF22 binding: inactive

How did CC(NC(=O)CN1c2cccc3cccc(c23)S1(=O)=O)c1ccccc1 (stereo unspecified) do in these assays?
HNF4A DNA FP: -2.4; Vif TR-FRET: 2%; AF4-AF9 inh: 2.5; FGF22 binding: inactive

How did CCOc1ccc2[nH]c(=O)c(CN(Cc3nnnn3Cc3ccco3)C3CCCCC3)cc2c1 do in these assays?
HNF4A DNA FP: -10; Ecoli growth: 0.79; Vif TR-FRET: 4.8µM*!; UCH37 inh: -10; RanGTP-Impb inh: 0.6

Results for COc1cccc(CNC(=O)C(C)n2ccc3cc(S(=O)(=O)N4CCCC4)ccc32)c1 (stereo unspecified) ?
HNF4A DNA FP: -1.7; Ecoli growth: 0.7; AF4-AF9 inh: -2.1; UCH37 inh: 1.7; RanGTP-Impb inh: -2.1; FGF22 binding: inactive

How did Nn1c(-c2ccc(O)cc2)nnc1-c1ccc(O)cc1 do in these assays?
HNF4A DNA FP: -0.4; Ecoli growth: 0.73; Vif TR-FRET: 9%; AF4-AF9 inh: 6.0; UCH37 inh: 3.2; RanGTP-Impb inh: 1.0; FGF22 binding: inactive

How did CCCCCn1c(=O)[nH]c2cc(C(=O)NCCN3CCC(C)CC3)ccc2c1=O do in these assays?
HNF4A DNA FP: -1.3; Ecoli growth: 0.69; UCH37 inh: -27; RanGTP-Impb inh: -1.1

How did ON=Cc1cccn1-c1ccccc1 do in these assays?
HNF4A DNA FP: -1.3; Ecoli growth: 0.67; Vif TR-FRET: 2%; UCH37 inh: 0.3; RanGTP-Impb inh: 2.1

How did COc1cccc(NC(=O)NNC(=O)COc2ccc3ccccc3c2)c1 do in these assays?
HNF4A DNA FP: -2.9; Ecoli growth: 0.66; AF4-AF9 inh: -3.9; UCH37 inh: 6.3; RanGTP-Impb inh: 2.4; FGF22 binding: inactive

The final 3 compounds of the section before come first, to join the parts.
How did CCCCCn1c(=O)[nH]c2cc(C(=O)NCCN3CCC(C)CC3)ccc2c1=O do in these assays?
HNF4A DNA FP: -1.3; Ecoli growth: 0.69; UCH37 inh: -27; RanGTP-Impb inh: -1.1

How did ON=Cc1cccn1-c1ccccc1 do in these assays?
HNF4A DNA FP: -1.3; Ecoli growth: 0.67; Vif TR-FRET: 2%; UCH37 inh: 0.3; RanGTP-Impb inh: 2.1

How did COc1cccc(NC(=O)NNC(=O)COc2ccc3ccccc3c2)c1 do in these assays?
HNF4A DNA FP: -2.9; Ecoli growth: 0.66; AF4-AF9 inh: -3.9; UCH37 inh: 6.3; RanGTP-Impb inh: 2.4; FGF22 binding: inactive

Results for CCn1c(=S)[nH]c2c(c1=O)C(C)(C)Cc1ccccc1-2 ?
HNF4A DNA FP: 7.2; Ecoli growth: 0.73; Vif TR-FRET: 4%; AF4-AF9 inh: -1.9; UCH37 inh: 5.6; RanGTP-Impb inh: -2.2; FGF22 binding: inactive

Results for CCOC(=O)CN(C(=O)CSc1nnc(CNc2ccc(F)cc2)o1)c1ccccc1 ?
HNF4A DNA FP: -0.7; Ecoli growth: 0.69; Vif TR-FRET: 2%; UCH37 inh: 4.5; RanGTP-Impb inh: 2.3

Results for CCn1c(=O)c(-c2nc3ccccc3[nH]2)c(O)c2ccccc21 ?
Ecoli growth: 0.72; AF4-AF9 inh: -0.1; UCH37 inh: -180; RanGTP-Impb inh: 0.7; FGF22 binding: inactive

Results for O=c1oc2c(CN3CCN(CCO)CC3)c(O)ccc2cc1-c1ccccn1 ?
HNF4A DNA FP: -3.9; Ecoli growth: 0.69; AF4-AF9 inh: -0.7; UCH37 inh: inactive; RanGTP-Impb inh: 156*; FGF22 binding: inactive

Results for O=C(c1noc2c1CCCCC2)N1CCOCC1 ?
HNF4A DNA FP: 1.0; Ecoli growth: 0.63; Vif TR-FRET: 2%; AF4-AF9 inh: 4.4; UCH37 inh: 0.6; RanGTP-Impb inh: 2.1; FGF22 binding: inactive

How did Oc1ccc2[nH]cnc2c1CN1CCCCC1 do in these assays?
HNF4A DNA FP: 3.6; Ecoli growth: 0.76; Vif TR-FRET: 6%; UCH37 inh: -3.6; RanGTP-Impb inh: 0.7

What do the screens show for `CN1CN(C)c2cccc3cccc1c23`?
HNF4A DNA FP: -0.6; Ecoli growth: 0.7; Vif TR-FRET: 15%; UCH37 inh: -205; RanGTP-Impb inh: -1.4

What do the screens show for `COCCN(C(=O)C(C)C)c1nnc(-c2ccc(C(C)(C)C)cc2)s1`?
HNF4A DNA FP: 1.1; Ecoli growth: 0.67; Vif TR-FRET: 6%; AF4-AF9 inh: -1.7; UCH37 inh: 2.1; RanGTP-Impb inh: -0.9; FGF22 binding: active

How did Cc1ccc(OCC(=O)NCCc2nc3ccccc3[nH]2)c(C)c1 do in these assays?
HNF4A DNA FP: -1.4; Ecoli growth: 0.65; Vif TR-FRET: -8%; AF4-AF9 inh: 0.4; UCH37 inh: 3.7; RanGTP-Impb inh: inconclusive; FGF22 binding: inactive

What do the screens show for `O=C(Cn1c2[n+](c3ccccc31)CC(O)CS2)c1ccccc1` (stereo unspecified)?
HNF4A DNA FP: 4.5; Ecoli growth: 0.69; Vif TR-FRET: -3%; AF4-AF9 inh: -2.1; UCH37 inh: 2.2; RanGTP-Impb inh: 2.4; FGF22 binding: inactive

Results for CCCCc1nc2sc3c(c2c(=O)[nH]1)CCC3 ?
HNF4A DNA FP: 2.2; Ecoli growth: 0.72; Vif TR-FRET: 4%; RanGTP-Impb inh: 1.6

How did CC(C)C(=O)Nc1nnc(SCC(=O)NCc2ccc3c(c2)OCO3)s1 do in these assays?
HNF4A DNA FP: 2.5; Ecoli growth: 0.72; Vif TR-FRET: -4%; AF4-AF9 inh: -1.2; UCH37 inh: 0.2; RanGTP-Impb inh: -0.9

Results for COC(=O)CCN(C(=O)c1cccc(OC(C)=O)c1)c1ccccn1 ?
HNF4A DNA FP: 0.8; Ecoli growth: 0.71; Vif TR-FRET: 21%; UCH37 inh: -1.3; RanGTP-Impb inh: 1.9

Results for Cc1ccc(SCC(=O)OCC(=O)Nc2ccc3[nH]c(=O)[nH]c3c2)cc1C ?
HNF4A DNA FP: 2.1; Ecoli growth: 0.66; Vif TR-FRET: 1%; AF4-AF9 inh: 4.9; UCH37 inh: 1.8; RanGTP-Impb inh: -2.7; FGF22 binding: inactive

What do the screens show for `O=C(c1ccc([N+](=O)[O-])cc1)N1CCOCC1`?
HNF4A DNA FP: 1.2; Ecoli growth: 0.65; Vif TR-FRET: 9%; AF4-AF9 inh: 0.4; UCH37 inh: 1.0; FGF22 binding: inactive

How did Cc1ccc(S(=O)(=O)NCc2ccccc2)cc1C(=O)N1CCCCCCC1 do in these assays?
HNF4A DNA FP: 1.7; AF4-AF9 inh: 15; RanGTP-Impb inh: -3.2; FGF22 binding: inactive

Results for Cc1ccc(C(=O)N(C)Cc2ccc(N3CCOCC3)cc2)cc1S(=O)(=O)NCc1ccccc1 ?
HNF4A DNA FP: 1.2; Ecoli growth: 0.66; Vif TR-FRET: -4%; AF4-AF9 inh: 1.4; UCH37 inh: 1.7; FGF22 binding: inactive

What do the screens show for `CC1CCN(S(=O)(=O)c2ccc(N=NC3=C(O)CC(C)(C)CC3=O)cc2)CC1`?
HNF4A DNA FP: 1.8; Ecoli growth: 0.75; Vif TR-FRET: -3%; UCH37 inh: 0.7; RanGTP-Impb inh: -3.1

Results for O=C(O)c1ccc(Nc2cccc(F)c2)c([N+](=O)[O-])c1 ?
HNF4A DNA FP: -0.1; Ecoli growth: 0.61; Vif TR-FRET: -1%; AF4-AF9 inh: 4.0; UCH37 inh: 4.7; RanGTP-Impb inh: -3.5; FGF22 binding: inactive

What do the screens show for `O=C(CN(Cc1ccc(Cl)cc1)C(=O)CNS(=O)(=O)c1ccc(F)cc1)NCC1CCCO1` (stereo unspecified)?
HNF4A DNA FP: 1.6; Ecoli growth: 0.72; Vif TR-FRET: -12%; AF4-AF9 inh: -2.4; UCH37 inh: 3.2; RanGTP-Impb inh: 1.4; FGF22 binding: inactive

Results for CCCC(=O)N1CCN(c2ccc(NC(=O)c3cccs3)cc2)CC1 ?
HNF4A DNA FP: 1.9; Ecoli growth: 0.72; Vif TR-FRET: -3%; AF4-AF9 inh: 3.5; UCH37 inh: 6.4; RanGTP-Impb inh: 1.2; FGF22 binding: inactive

What do the screens show for `CCOc1c(C(N)=O)cc([N+](=O)[O-])cc1[N+](=O)[O-]`?
HNF4A DNA FP: -1.0; Ecoli growth: 0.68; Vif TR-FRET: -11%; AF4-AF9 inh: 1.4; UCH37 inh: 2.5; RanGTP-Impb inh: 1.6; FGF22 binding: inactive

How did O=S(=O)(O)c1cc2onnc2c2ccccc12 do in these assays?
HNF4A DNA FP: -5.0; Ecoli growth: 0.66; Vif TR-FRET: 11%; AF4-AF9 inh: 5.3; UCH37 inh: -8.2; FGF22 binding: inactive

What do the screens show for `Clc1ccc(-c2cn3c(n2)-c2ccccc2C3)cc1Cl`?
HNF4A DNA FP: -1.2; Ecoli growth: 0.67; Vif TR-FRET: 2%; UCH37 inh: -5.4; RanGTP-Impb inh: 2.9

Results for COc1ccc(C2=NN(C(=O)CCCC(=O)O)C(c3cccs3)C2)cc1OC (stereo unspecified) ?
HNF4A DNA FP: 3.9; Ecoli growth: 0.66; Vif TR-FRET: 7%; AF4-AF9 inh: 6.3; UCH37 inh: -29; RanGTP-Impb inh: 0.8; FGF22 binding: inactive

What do the screens show for `O=C(Nc1cccc(C(F)(F)F)c1)c1ccccc1NC(=O)C1CCCCC1`?
HNF4A DNA FP: 0.7; Ecoli growth: 0.71; Vif TR-FRET: -10%; AF4-AF9 inh: 0.2; UCH37 inh: 1.4; RanGTP-Impb inh: 0.8; FGF22 binding: inactive

How did NNC(=O)CNc1ccccc1Cl do in these assays?
HNF4A DNA FP: -2.1; Ecoli growth: 0.68; AF4-AF9 inh: 0.2; UCH37 inh: -0.8; RanGTP-Impb inh: 5.3; FGF22 binding: inactive

How did O=C(Nc1cccc([N+](=O)[O-])c1)C(=O)N1CCCCC1 do in these assays?
HNF4A DNA FP: -3.1; Ecoli growth: 0.69; Vif TR-FRET: 2%; AF4-AF9 inh: 2.0; UCH37 inh: 0.7; RanGTP-Impb inh: 4.1; FGF22 binding: inactive

Screening results: PubChem BioAssay, several laboratories
